S aureus helic: S. aureus DNA helicase inhibition. purified S. aureus helicase, fluorescence unwinding assay; about half of the hits fall short of the stated cut. inhibition, %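 (tested at about 80 µM)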. actives 0.05% (n = 120,000). AID 485395;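 active = both duplicates at 50% or more, or one of them with a favoured structure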;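 also: 0% = mean of negative control wells and 100% = mean of positive control wells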
MgrA-DNA mod: S. aureus MgrA-DNA binding modulation; fluorescence polarization; actives 0.13% (n = 84,000); inhibition, %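 (about 10 µg/mL by stock and volumes)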; AID 602314;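 active = above 50% in either of two replicates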;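 also: 0% = protein plus DNA without compound and 100% = DNA alone without protein; higher means less MgrA bound to DNA so lower polarization; one replicate is shown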
An asterisk follows results filed as active.

CC1(C)Cc2ccccc2-c2nc3[nH][nH]c(=S)n3c(=O)c21 was read as S aureus helic 40.0.
`O=C(C1COc2ccccc2O1)N1CCCc2ccccc21` (configuration not stated) gave S aureus helic 6.0 and MgrA-DNA mod -3.8.
O=C1NC2(CCCCC2)C(=O)N1CCN1C(=O)c2ccccc2C1=O was read as S aureus helic 14.0.
`C=CCSc1nnc(NC(=O)/C=C/c2c(Cl)nc3sccn23)s1` gave S aureus helic -2.0.
`COc1cc2c(cc1NS(=O)(=O)N1CCCCC1)oc1ccccc12` gave S aureus helic 3.0 and MgrA-DNA mod -1.4.
For O=C1c2ccccc2C(=O)N1/N=C/c1ccc(O)c(O)c1 the results were S aureus helic -15.0.
Screening CCN(CC(=O)Nc1cccc(OC)c1)CC(=O)Nc1ccccc1C returned S aureus helic -10.0.
CCOC(=O)N1CCN(Cc2nc(N)nc(Nc3ccc(C)cc3)n2)CC1 was read as S aureus helic 20.0 and MgrA-DNA mod -3.5.
`O=C(Cn1nnc(-c2ccccc2)n1)C12CC3CC(CC(C3)C1)C2` gave S aureus helic 23.0.
For CCCOc1ccc(N2C(=O)CC(SCC(=O)O)C2=O)cc1 (configuration not stated) the results were S aureus helic -38.0.
`O=C(O)c1cccnc1SC1CC(=O)N(c2ccc(Cl)cc2)C1=O` (configuration not stated) gave S aureus helic 18.0 and MgrA-DNA mod 1.9.
Screening CC1=C(C(=O)OC2CCCC2)C(c2ccc(C)o2)C2=C(CCCC2=O)N1 (configuration not stated) returned S aureus helic 1.0 and MgrA-DNA mod 1.8.
Clc1ccccc1-c1nc(C2CCCCC2)no1 was read as S aureus helic 5.0.
COC(=O)c1cc(-c2ccccn2)no1 was read as S aureus helic -71.0 and MgrA-DNA mod 2.0.
`O=C(CN1CCN(S(=O)(=O)c2ccccc2)CC1)Nc1cccc(C(F)(F)F)c1` gave S aureus helic 3.0.
CC1CCCCN1CCC(=O)O (configuration not stated) was read as S aureus helic 15.0.
Screening CCOC(=O)N1CCc2c(sc3c2c(=O)n(-c2ccccc2)c(=O)n3CC(=O)Nc2ccccc2F)C1 returned S aureus helic 3.0.
COc1cc(/C=C\C(=O)NCc2ccc3c(c2)cc(C)n3C)cc(OC)c1OC was read as S aureus helic 11.0 and MgrA-DNA mod 4.6.
O=C(c1ccccc1)c1nn(-c2ccc(Cl)cc2)ccc1=O was read as MgrA-DNA mod 3.5.
`Cc1cc(=O)oc(C)c1C(=O)Nc1ccccc1C(=O)N1CCCCC1` gave S aureus helic 8.0 and MgrA-DNA mod 0.7.
`COc1ccc(NC(=O)C2CC(=O)N(Cc3ccc4c(c3)OCO4)C(=Nc3ccc(F)cc3)S2)cc1` (configuration not stated) gave MgrA-DNA mod 1.4.
Screening CN(C)c1ccc(/C=C(\C#N)S(=O)(=O)c2ccccc2)cc1C#N returned MgrA-DNA mod 2.2.
`O=C(OCCN1C(=O)c2ccccc2C1=O)C1CCCCN1S(=O)(=O)c1ccccc1` (configuration not stated) gave S aureus helic 0.0.
For Cc1c(=O)n(OCc2ccc(Cl)cc2)c2ccccc2[n+]1[O-] the results were S aureus helic 4.0 and MgrA-DNA mod 0.2.
For Cc1cc(N=Cc2c(O)n(-c3ccc(C(C)C)cc3)c(=O)c3ccccc23)n[nH]1 the results were S aureus helic 12.0.
`COc1ccc(C2c3sc(=O)[nH]c3SC3C(=O)N(CC(=O)O)C(=O)C32)cc1` (configuration not stated) gave S aureus helic 8.0.
Screening Cc1ccc(OC(=O)OCSc2nn[nH]n2)cc1 returned MgrA-DNA mod -3.2.
Cc1cc(=O)oc2c3c(ccc12)OCN(C(C)(C)C)C3 was read as S aureus helic 28.0.
`O=C(Nc1ccc(-n2cccc2)cc1)c1ccc(Cl)cc1` gave MgrA-DNA mod -3.2.
O=C(CN1CCCCC1)Nc1cc(C(F)(F)F)cc(C(F)(F)F)c1 was read as MgrA-DNA mod -1.4.
For Cc1nc(NCc2ccco2)c2c3c(sc2n1)CCC3 the results were S aureus helic -13.0.
Screening O=C(CN1C(=O)S/C(=C\c2cccs2)C1=O)N1CCCC1 returned S aureus helic -5.0.
`CCOc1cccc(NC(=O)c2cc(=O)c3ccccc3o2)c1` gave S aureus helic -14.0.
Screening CCC(O)c1cc2c(cc1NC(=O)c1cccs1)OCCO2 (configuration not stated) returned S aureus helic 10.0 and MgrA-DNA mod -0.8.
`CCOC(=O)CSc1sc(C(=O)OCC)c2c1C(O)CCC2` (configuration not stated) gave MgrA-DNA mod -1.6.
`COC(=O)c1ccc(NC(=O)C(C(C)C)N2C(=O)c3ccccc3C2=O)cc1` (configuration not stated) gave S aureus helic 26.0.
`Cc1cc(C(=O)N2CCC(Cc3ccccc3)CC2)on1` gave S aureus helic 6.0.
N#CCC(=O)c1cccc(CSc2ccccc2Cl)c1 was read as MgrA-DNA mod -1.5.
Screening c1ccc(-n2nnnc2Sc2nc(C3CC3)n(-c3ccccc3)n2)cc1 returned S aureus helic -9.0.
For O=C(Cn1c(=O)[nH]c2ccsc2c1=O)NCc1cccs1 the results were S aureus helic 7.0.

The final 3 compounds of the section above come first, to join the parts.
N#CCC(=O)c1cccc(CSc2ccccc2Cl)c1 was read as MgrA-DNA mod -1.5.
Screening c1ccc(-n2nnnc2Sc2nc(C3CC3)n(-c3ccccc3)n2)cc1 returned S aureus helic -9.0.
For O=C(Cn1c(=O)[nH]c2ccsc2c1=O)NCc1cccs1 the results were S aureus helic 7.0.
For C=CCSC1=C(C#N)C(c2ccccc2Cl)C(C(=O)c2cccs2)C(O)(C(F)(F)F)N1 (configuration not stated) the results were S aureus helic 19.0 and MgrA-DNA mod 4.0.
`CC(=O)Nc1ccc(C(=O)OCC(=O)Nc2ccc3ccccc3c2)cc1` gave S aureus helic 4.0 and MgrA-DNA mod -0.3.
`O=C(O)CN1C(=O)/C(=C2\SC(=Nc3cccc(Cl)c3Cl)NC2=O)c2ccccc21` gave MgrA-DNA mod 1.5.
For O=S(=O)(Nc1nc(SCc2ccc(Cl)cc2)n[nH]1)c1ccccc1 the results were MgrA-DNA mod -2.4.
For COC(=O)CN1C(=O)C(C)(C)Oc2ccc(C(=O)Nc3cccc(OC)c3)cc21 the results were S aureus helic 13.0 and MgrA-DNA mod -0.7.
`c1ccc(Cn2nnnc2SCc2ccc(CSc3nnnn3Cc3ccccc3)cc2)cc1` gave S aureus helic -5.0 and MgrA-DNA mod -4.0.
`Cc1cn(CC(=O)NCCN)c(=O)[nH]c1=O` gave S aureus helic -3.0 and MgrA-DNA mod -1.0.
CCOC(=O)c1[nH]c(CO/N=C/C(=O)Nc2ccc3c(c2)OCCO3)c(C(=O)OCC)c1C was read as S aureus helic 3.0.
Screening Cc1ccc(NC(=O)Cc2c(C)nc3ncnn3c2C)cc1 returned S aureus helic -10.0.
`COC(=O)c1ccc(C2OCCCO2)cc1` gave S aureus helic 12.0 and MgrA-DNA mod -0.8.
Screening CCn1c2ccccc2n2c(SC(C)C(=O)O)nnc12 (configuration not stated) returned S aureus helic 10.0.
Screening COc1cc2ncnc(Sc3ccccn3)c2cc1OC returned MgrA-DNA mod 0.3.
CN1CCN(C(=O)CCN2C(=O)/C(=C/c3ccc(Cl)cc3)SC2=S)CC1 was read as S aureus helic 4.0 and MgrA-DNA mod 3.5.
For Cc1noc(NC(=O)NC(=O)c2cc(F)c(N(C)C)c(F)c2)c1C the results were S aureus helic 15.0.
`COc1ccc2[nH]c(=O)c(CNCc3ccccc3)cc2c1` gave S aureus helic -4.0 and MgrA-DNA mod 3.5.
CC(=O)Nc1nc(C2CCCCC2)cs1 was read as S aureus helic 24.0.
For Cc1csc(=O)n1CCC(=O)OCc1ccc(C#N)cc1 the results were S aureus helic 17.0.
CCCCC(=O)Nc1cccc2nsnc12 was read as S aureus helic 9.0.
For CCCn1nc(C(=O)Nc2ccc(S(=O)(=O)N(C)C)cc2)c2ccccc2c1=O the results were S aureus helic 3.0.
For C=CCn1c(N)cc(=O)nc1SCC(=O)NC1CCCCC1 the results were S aureus helic -3.0 and MgrA-DNA mod 1.2.

Next section, starting with the last five of the part before.
CC(=O)Nc1nc(C2CCCCC2)cs1 was read as S aureus helic 24.0.
For Cc1csc(=O)n1CCC(=O)OCc1ccc(C#N)cc1 the results were S aureus helic 17.0.
CCCCC(=O)Nc1cccc2nsnc12 was read as S aureus helic 9.0.
For CCCn1nc(C(=O)Nc2ccc(S(=O)(=O)N(C)C)cc2)c2ccccc2c1=O the results were S aureus helic 3.0.
For C=CCn1c(N)cc(=O)nc1SCC(=O)NC1CCCCC1 the results were S aureus helic -3.0 and MgrA-DNA mod 1.2.
Screening COc1ccc(C(=O)c2c(N)sc3c2CCN(C(=O)OC(C)(C)C)C3)cc1 returned MgrA-DNA mod 1.9.
NC(=O)COc1ncn(-c2ccccc2)n1 was read as MgrA-DNA mod 2.5.
For Cc1nc(Sc2nnc3n2CCCCC3)c2c(-c3cccs3)csc2n1 the results were S aureus helic 27.0.
`CC(NC(=O)CSc1nccc(=O)[nH]1)C1CC2CCC1C2` (configuration not stated) gave S aureus helic 16.0.
`COc1ccc2[nH]c(=O)c(-c3ccccc3)c(O)c2c1` gave MgrA-DNA mod 2.2.
CC(NC(=O)Cn1c(CCCO)nc2ccccc21)C1CC2CCC1C2 (configuration not stated) was read as S aureus helic 0.0.
For COc1cc(C2C3=C(CC(C)(C)CC3=O)N(C)C(=O)N2C)cc(OC)c1OC (configuration not stated) the results were S aureus helic 5.0.
For N#C/C(=C(/O)CN1CCN(Cc2ccccc2)CC1)c1nc(-c2ccccc2)cs1 the results were S aureus helic -7.0.
Screening COc1ccc(-c2noc(CC(=O)N(C(C)C)C3CCCCC3)n2)cc1 returned S aureus helic 2.0 and MgrA-DNA mod 0.7.
O=C1Nc2ccccc2/C1=C/c1ccc(-c2ccc(F)cc2)o1 was read as S aureus helic -38.0.
`Cc1oc(-c2ccc(C(=O)O)cc2)nc1CN1CCCCC1` gave S aureus helic 1.0 and MgrA-DNA mod 0.3.
Screening C=CCNC(=S)N1CCCc2ccccc21 returned S aureus helic 4.0.
Screening CSc1ccccc1NC(=O)CN(C)CC(=O)Nc1ccc(N2CCOCC2)cc1 returned S aureus helic 6.0.
`O=C(O)C1CCCN1Cc1c[nH]c2ccccc12` (configuration not stated) gave S aureus helic 12.0 and MgrA-DNA mod -0.5.
For CC(=O)N1CCN(CCNC(=O)c2ccncc2)CC1 the results were S aureus helic 15.0 and MgrA-DNA mod -2.6.
COc1ccccc1C(=O)Nc1ccc2nc(SCC(=O)Nc3ccc(C)cc3C)sc2c1 was read as S aureus helic 9.0 and MgrA-DNA mod -7.5.
For CCOc1ccc(NCc2nc3ccccc3n2C)cc1 the results were S aureus helic 3.0 and MgrA-DNA mod 1.7.
Screening CC(=NCCc1ccccc1)C1CCOC1=O (configuration not stated) returned MgrA-DNA mod -3.5.
`Cc1ccn(C(=O)c2ccc(NC(=O)C3CC3)cc2)n1` gave S aureus helic 13.0.
Screening c1ccc(Nc2nnc(-c3cccc4ccccc34)o2)cc1 returned S aureus helic 17.0.
Screening CC1=CC(=O)N(c2ccc(OC(F)(F)F)cc2)C1=O returned MgrA-DNA mod 8.0.
COc1ccc(-c2csc3nc(C)n(-n4cccc4)c(=O)c23)cc1 was read as S aureus helic 13.0.
`O=S1(=O)CC(N2CCCCC2)C(N2CCCCC2)C1` (configuration not stated) gave S aureus helic -3.0 and MgrA-DNA mod -2.7.
`Nn1c(C2CC2)nc2cc(Cl)ccc2c1=O` gave S aureus helic 9.0 and MgrA-DNA mod -2.5.
Clc1ccc(OCc2nc3ccccc3[nH]2)c(Cl)c1 was read as S aureus helic 0.0.
`NC(=O)c1c(NC(=O)c2ccccc2)sc2c1CCC2` gave S aureus helic -7.0 and MgrA-DNA mod -2.9.
Screening O=C(Cc1ccccc1)NCCCN1CCOCC1 returned S aureus helic 2.0.
For Cc1ccc(C(=O)N2CCc3cc(C(=O)C(C)N4CCC(C)CC4)ccc32)cc1 (configuration not stated) the results were S aureus helic 4.0 and MgrA-DNA mod -4.5.
CN(Cc1nc(-c2ccccc2)no1)C(=O)CC(C)(C)C was read as S aureus helic 17.0 and MgrA-DNA mod 2.5.
COC(=O)CC(=O)CSc1nc2c(cc1C#N)CCC2 was read as S aureus helic -13.0 and MgrA-DNA mod 1.9.
For N#CC1=C(SCC(=O)OCc2ccccc2)NC(=O)CC1c1ccc(Cl)cc1Cl (configuration not stated) the results were MgrA-DNA mod -0.6.
Screening C=CCn1c(Cc2csc(N)n2)nnc1SCc1ccc(C(=O)OC)cc1 returned S aureus helic 23.0 and MgrA-DNA mod -0.1.
`Nc1cc(=O)[nH]c(SCc2ccccc2Cl)n1` gave S aureus helic 0.0 and MgrA-DNA mod -2.6.
For COC(=O)c1ccc(N2C(=O)CCC2=O)cc1 the results were S aureus helic 23.0.
Screening O=C(CSc1nnnn1C1CCCC1)NN1C(=O)NC(c2ccccc2)(c2ccccc2)C1=O returned S aureus helic -6.0.
For CCc1ccc(C2C3=C(CCCC3=O)Nc3c2c(=O)n(C)c(=O)n3C)cc1 (configuration not stated) the results were S aureus helic 9.0 and MgrA-DNA mod 0.9.
`CCC(C)OC(=O)C1=C(C)NC2=C(C(=O)CC(c3ccc(OC)cc3)C2)C1c1ccc(OC)cc1OC` (configuration not stated) gave MgrA-DNA mod -1.8.
Cc1nnc(SC(c2ccccc2)c2ccccc2)s1 was read as S aureus helic 3.0 and MgrA-DNA mod -0.9.
Oc1ccc(Br)cc1CNc1cccc(C(F)(F)F)c1 was read as MgrA-DNA mod 0.6.
Screening Cc1nc2ccc(NC(=O)N3CC4(C)CC3CC(C)(C)C4)cc2nc1C (configuration not stated) returned S aureus helic 7.0 and MgrA-DNA mod -5.8.

An excerpt from above in order of SMILES length, smallest number first:
`Nc1cc(=O)[nH]c(SCc2ccccc2Cl)n1` gave S aureus helic 0.0 and MgrA-DNA mod -2.6.
For N#CC1=C(SCC(=O)OCc2ccccc2)NC(=O)CC1c1ccc(Cl)cc1Cl (configuration not stated) the results were MgrA-DNA mod -0.6.
Screening O=C(CSc1nnnn1C1CCCC1)NN1C(=O)NC(c2ccccc2)(c2ccccc2)C1=O returned S aureus helic -6.0.

These rows are one share of the data; the hit share may differ from the screen's.
